Screening results: PubChem, National Center for Advancing Translational Sciences (NCATS)
Six1-Eya2 inh – blocks human Six1 binding to Eya2; Q15475+O00167; AlphaScreen GST-Six1/His-Eya2 binding, biochemical; active compounds read low; control for the full effect not named in the record; activity change, % (no concentration beside the values); 360,000 tested, 0.56% active; AID 651725; in the data active = activity change below about -65%; inconclusive = about -30% to -65%; inactive = above about -30%; also: % is scaled to controls: 0 for no effect and ±100 for the full control effect
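AlphaScreen with GST-Six1 and His-Eya2 (5X mix: 250 nM and 500 nM), glutathione donor and nickel acceptor beads; buffer 50 mM Tris pH 8.0, 300 mM NaCl, 1 mM TCEP; 1 h at 37 C in the dark.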
D2 agonist – agonists of human D2 dopamine receptor (beta-arrestin). DiscoveRx PathHunter D2 beta-arrestin, luminescence, 90 min; 100% = 57 uM dopamine signal. activation, % (concentration not given with the values). 360,000 tested, 0.084% active; in the data active = activation above about 40%; inconclusive = about 15% to 40%; inactive = below about 15%; also: compound concentration not given in the record; the text of the record calls up to 30% inactive
Target sequence (P14416 whole entry, looked up): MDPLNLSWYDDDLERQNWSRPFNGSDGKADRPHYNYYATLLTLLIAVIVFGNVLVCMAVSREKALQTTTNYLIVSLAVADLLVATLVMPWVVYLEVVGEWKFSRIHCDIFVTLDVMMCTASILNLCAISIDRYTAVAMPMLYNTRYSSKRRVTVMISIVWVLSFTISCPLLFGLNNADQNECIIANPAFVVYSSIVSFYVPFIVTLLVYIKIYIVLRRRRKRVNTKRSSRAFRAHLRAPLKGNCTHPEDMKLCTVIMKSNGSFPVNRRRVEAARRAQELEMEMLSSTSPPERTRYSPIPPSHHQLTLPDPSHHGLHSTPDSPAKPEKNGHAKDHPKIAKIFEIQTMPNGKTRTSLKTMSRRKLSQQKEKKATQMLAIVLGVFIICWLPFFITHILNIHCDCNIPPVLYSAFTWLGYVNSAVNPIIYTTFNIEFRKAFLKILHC
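DiscoveRx PathHunter D2 beta-arrestin cells (2,100/well) attached overnight, then compound-stimulated 90 min at 37 C in HBSS/10 mM HEPES/0.1% Tween-20 buffer; beta-galactosidase complementation read by luminescence after 1 h at ambient temperature. Dopamine 57 uM final (EC100) as control.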
TRPML1 agonist – agonists of human TRPML1 channel; Q9GZU1; TRPML1-expressing cells, Ca2+ dye fluorescence, FDSS; host cell line not named in the record; reference of the full effect not given here; activation, % (no concentration beside the values); 410,000 tested, 0.12% active; in the data active = activation above about 50%; inconclusive = about 30% to 50%; inactive = below about 30%; also: 0% is about no effect; the text of the record puts the active cut at 80%
Target sequence (Q9GZU1 whole entry, looked up): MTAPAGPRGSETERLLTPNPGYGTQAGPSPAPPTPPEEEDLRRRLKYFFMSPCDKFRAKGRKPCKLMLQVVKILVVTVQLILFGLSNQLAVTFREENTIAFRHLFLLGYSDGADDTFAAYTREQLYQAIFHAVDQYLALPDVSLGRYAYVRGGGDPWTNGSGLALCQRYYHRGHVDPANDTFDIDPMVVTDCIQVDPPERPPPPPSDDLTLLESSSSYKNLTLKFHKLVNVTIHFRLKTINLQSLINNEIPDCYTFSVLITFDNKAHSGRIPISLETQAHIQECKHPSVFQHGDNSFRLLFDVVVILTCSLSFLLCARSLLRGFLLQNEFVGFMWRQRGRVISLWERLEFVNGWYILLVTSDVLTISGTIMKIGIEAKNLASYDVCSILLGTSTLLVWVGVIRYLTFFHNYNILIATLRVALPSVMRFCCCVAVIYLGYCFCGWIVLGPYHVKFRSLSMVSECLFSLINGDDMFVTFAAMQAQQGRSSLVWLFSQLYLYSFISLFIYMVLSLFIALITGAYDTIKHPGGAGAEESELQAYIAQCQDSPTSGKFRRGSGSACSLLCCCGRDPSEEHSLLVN
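Kinetic FDSS Ca2+ read in Tet-induced TRPML1-DL cells (ABD Ca8 dye plus quencher, 45-90 min RT loading): baseline, then compound, then 110 s agonist window; EC80 agonist 54-4 at 4uM final added afterwards for a 110 s antagonist window.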
CtBP-E1A inh – CtBP/E1A binding inhibition; AID 651724; AlphaScreen GST-E1A/His-CtBP binding, 1536-well; active compounds read low; control for the full effect not named in the record; activity change, % (test concentration not listed); 340,000 tested, 0.49% active; in the data active means activity change below about -65%; inconclusive means about -30% to -65%; inactive means above about -30%; also: % is scaled to controls: 0 for no effect and ±100 for the full control effect
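Homogeneous bead-based format: GST-tagged E1A captured on glutathione donor beads, His-tagged CtBP on nickel acceptor beads; compounds precede bead addition by 2 h at 37 °C.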
PINK1 expr mod – changes PINK1 expression; PINK1 immunofluorescence, high-content cytometry, 24 h; Potency, µM (highest dose often 76.6 µM), for the others: at the top dose activation (PINK1 increase), most hits filed as activators; 410,000 tested, 0.2% active; active = well fitted activation curve with a large enough effect; inconclusive = small, poorly fitted or top-dose-only effect; inactive = flat fitted curve, though single readings scatter; cell line not stated here;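 also: potency is read from the fitted curve at half-maximal effect; % of control where 0% means no effect; nearly all actives have a fitted effect of over 65% in size; a mitochondrial uncoupler was the plate control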
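PINK1 protein, normally rapidly degraded, was detected by immunofluorescence after 24 hour compound treatment of a stable cell line. Titration data (5 concentrations) came from laser-scanning cytometry, with CCCP-treated wells as controls.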
D2 PAM – human D2 receptor positive allosteric modulation. AID 624464. 360,000 tested, 0.23% active. potentiation, % (concentration not given with the values). DiscoveRx D2 beta-arrestin cells, luminescence, 90 min; 100% = 57 uM dopamine signal. P14416; active = potentiation of 50% or more; inconclusive = 30% to 50%; inactive = 30% or less;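 also: compound concentration not given in the record; tested on top of an EC20 dose of dopamine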
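D2 cells co-treated with compound plus 50 nM dopamine (EC20) for 90 min at 37 deg C to detect potentiation. Beta-arrestin recruitment was read as enzyme-fragment luminescence after 1 h at ambient temperature. Full response was set by 57 uM dopamine.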
Active calls of the source: *; ? = inconclusive; / = no result given; [ ] = remark or other dose.

SMILES | Six1-Eya2 inh | D2 agonist | TRPML1 agonist | CtBP-E1A inh | PINK1 expr mod | D2 PAM
CCOC(=O)CNC(=O)CSc1ncnc2c1nnn2-c1ccc(F)cc1 | 11.7 | -1.5 | 0.9 | -2.4 | -2.0% | -5.0
CCOc1ccc(S(=O)(=O)NCCC(=O)N(C)CC(=O)Nc2ccc(N3CCOCC3)cc2)cc1 | 5.3 | -0.9 | -0.1 | 6.5 | -2.1% | -2.5
COC(=O)C1CCN(S(=O)(=O)c2c[nH]c(=O)[nH]c2=O)CC1 | 36.0 | -2.1 | 0.4 | 4.5 | 3.2% | -9.4
C[C@H](NC(=O)c1ccco1)C(=O)NCc1cccs1 | 0.9 | -1.3 | -0.1 | / | 0.0% | 0.9
COc1ccc(CNS(=O)(=O)c2ccc3oc(C(=O)O)c(C)c3c2)cc1 | -0.1 | 3.4 | 0.5 | 2.1 | -5.1%[38.3 µM] | -1.9
CCOC(=O)C(NC(=O)Cc1ccccc1)(Nc1cc(C)on1)C(F)(F)F (configuration not stated) | 0.5 | -1.1 | 2.3 | 5.8 | -0.7% | -1.7
O=S(=O)(NC1Cc2ccccc2C1)c1ccccc1 | -0.6 | -3.5 | 1.9 | 0.6 | 0.5% | -7.6
Cc1ncc(C(O)c2ccc(N(C)C)cc2)n1Cc1ccccc1 (configuration not stated) | -3.7 | -4.3 | 0.1 | -6.1 | -0.3% | -12.2
c1ccc(Cc2nnc3n2CCCCC3)cc1 | -9.1 | -1.3 | -0.4 | 7.8 | -2.0% | -14.5
COc1ccccc1NC(=O)C1CCCN(c2cnccn2)C1 (configuration not stated) | 2.0 | -4.1 | 0.9 | / | 2.2% | -7.8
COc1ccc(-c2nc3ccc(Cl)cn3c2CC(C)(C)C)cc1OC | -8.1 | -3.9 | -0.8 | -2.9 | 6.4% | 3.2
CCc1ccccc1S(=O)(=O)Cc1ccc(C(=O)NC(C)C)o1 | 6.7 | -4.6 | 1.2 | -4.1 | 1.2% | -1.0
CC(C)(C)OC(=O)N[C@@H](Cc1ccccc1)c1nnc(S(=O)(=O)Cc2cccc(F)c2)o1 | 0.4 | -9.1 | 2.0 | -2.1 | 0.4% | -13.2
CC(C)C[C@@H](CN1CCC[C@@H]1CN1C(=S)NC[C@@H]1Cc1ccccc1)N1C[C@H](Cc2ccc(O)cc2)N(CC2CCCCC2)C1=S | 0.5 | 2.6 | -0.4 | -7.5 | 7.4% | 3.7
O=C(COC(=O)c1ccc(O)cc1)NC(c1ccccc1)c1ccccc1 | 3.3 | 2.5 | 0.4 | -1.1 | -3.0% | -8.7
CCOC(=O)C(NS(=O)(=O)c1ccc(Br)cc1)C(C)C (configuration not stated) | 2.8 | -1.0 | -0.5 | 6.0 | 2.4%[38.3 µM] | -5.9
Cn1cnnc1SCc1ccc(C(=O)N/N=C(/CCC(=O)O)c2ccc(C(C)(C)C)cc2)cc1 | 2.3 | -0.4 | -0.5 | 0.4 | 3.0% | 4.5
O=C(c1ccc(N2CCCCS2(=O)=O)cc1)N1CCN(c2ccccc2F)CC1 | -13.3 | 2.2 | 0.2 | 0.9 | -0.5% | -3.5
CSc1ncc(CN2CCCC(C(=O)c3ccc(C(C)(C)C)cc3)C2)cn1 (configuration not stated) | -16.3 | -1.4 | 2.7 | / | 1.2% | -16.2
Cc1cc2oc(C(=O)N(Cc3ccccc3)C3CCS(=O)(=O)C3)c(C)c2cc1C (configuration not stated) | -2.7 | -1.9 | 3.4 | -24.0 | 2.2% | -31.3
O=C(Nc1ccc(N2C(=O)C3C4C=CC(C4)C3C2=O)cc1Cl)c1cccs1 (configuration not stated) | 0.7 | 1.0 | 0.1 | 15.4 | -1.1% | -6.4
O=C(O)c1ccc2nnn(O)c2c1 | 0.4 | -2.9 | 0.2 | 9.3 | 1.1% | -3.6
Cc1sc2ncn(CC(=O)NCCCC(=O)N3CCN(Cc4ccc5c(c4)OCO5)CC3)c(=O)c2c1C | 7.8 | -4.5 | -0.4 | -1.2 | 0.3% | 1.2
O=C1CCc2cc(S(=O)(=O)NC(C(=O)NCc3cccnc3)c3ccccc3)ccc2N1 (configuration not stated) | 2.0 | -4.6 | -0.7 | 1.8 | -0.4% | -6.4
CNC(=O)CN(c1cc(C)ccc1OC)S(=O)(=O)c1ccc(C)cc1 | -1.5 | -3.5 | 0.7 | -2.9 | -0.4% | 8.7
O=C(O)C1CCC(CNS(=O)(=O)c2ccccc2)CC1 (configuration not stated) | 13.9 | -7.3 | 1.7 | -14.3 | 1.4% | -7.2
CC1(c2nnc(-c3ccc(F)cc3)o2)CC(c2ccc([N+](=O)[O-])cc2)=NO1 (configuration not stated) | -12.5 | -1.3 | -0.2 | -14.2 | 5.3% | -2.6
COc1ccc(CC(=O)NNC(=O)c2cccs2)cc1OC | 4.9 | -2.7 | -0.1 | 5.6 | 2.1% | -2.7
O=C(CNC(=O)c1ccccc1F)NCCN1C(=O)S/C(=C\c2ccc3c(c2)OCO3)C1=O | 2.9 | -2.3 | 0.5 | 5.1 | 3.7% | -1.5
Cc1c(C(=O)N2CCCCC2)c(S(=O)(=O)N2CCC(C)CC2)c(C)n1C | 4.1 | -4.9 | -0.7 | 2.2 | 0.4% | -4.5
CC(C)Cc1ccc(-c2cc3nc(NCCOc4ccccc4)ccn3n2)cc1 | 34.3 | 4.8 | -0.4 | 34.7 | 18.2% | 6.4
COc1ccc(CC(=O)NNC(=O)c2ccccn2)cc1 | ? | 0.5 | 0.2 | -74.1* | -0.9% | -0.1
COCCCNC(=O)c1ccc(-c2csc(C)n2)cc1 | 11.9 | -1.4 | -0.5 | -17.3 | 0.5% | -2.3
CC1CCN(S(=O)(=O)c2ccc(NC(=O)N3c4ccccc4Sc4ccccc43)cc2)CC1 | -2.8 | 3.7 | -0.3 | 11.5 | / | 26.4
CCSc1nc2c(c(=O)n1-c1ccc(F)cc1)SCC2 | -3.7 | -0.8 | 1.3 | 12.1 | 1.1%[38.3 µM] | 6.2
O/N=C/c1ccc2cccc(OCc3ccccc3)c2n1 | -5.2 | -6.4 | / | -2.8 | -0.4% | -5.6
COc1ccc(C2/C=C\CN(S(=O)(=O)c3ccc(C)cc3)CC(=O)N2Cc2cccc(F)c2)cc1 (configuration not stated) | -3.2 | 1.7 | 0.6 | 0.0 | -1.0% | /
COc1ccc(S(=O)(=O)NCc2ccc(C)cc2)cc1 | 3.4 | -1.9 | 0.3 | 5.4 | -1.1%[38.3 µM] | 13.3
CSc1ccc(CN2CCC(N3CC(C)OC(C)C3)CC2)cc1 (configuration not stated) | 4.5 | 2.0 | 0.5 | 5.6 | 0.7% | -2.6
O=C(NC1CC2CCCC(C1)N2C(=S)NCCc1ccccc1)C1CC1 (configuration not stated) | 5.0 | -2.5 | 0.0 | -4.6 | 0.4% | -12.2
C[C@@H](N)C(=O)N[C@H]1CCC2C3CC=C4C[C@@H](O)CC[C@]4(C)C3CC[C@@]21C (some centres not stated) | -1.1 | 3.1 | 1.1 | 6.8 | -0.1% | -4.6
CC(CC(=O)Nc1ccc2c(c1)c(=O)n(C)n2-c1cccs1)c1ccccc1 (configuration not stated) | -1.6 | -3.5 | 0.1 | 0.5 | 1.7% | -4.6
O=C(Cn1cnc2sc3c(c2c1=O)CCCC3)NCC(=O)Nc1c(F)cccc1F | 1.7 | -2.3 | 0.3 | 3.1 | -0.2% | -7.6
O=C(CSc1nncc(=O)[nH]1)NC1CCCCC1 | -4.4 | -2.0 | 0.2 | -10.5 | 2.8% | 1.5
COc1ccc([C@@H]2[C@@H]3C(=O)N(C(C)(C)C)C(=O)[C@@H]3[C@]3(Cc4ccc(Cl)cc4)C(=O)N(c4ccc(C)cc4)C(=O)N23)cc1 | -5.2 | -3.2 | -0.7 | -5.0 | -1.0% | -7.4
O=C(/C=C/NNC(=O)c1cccc(Br)c1)c1cccc(Br)c1 | -8.5 | 0.8 | 0.4 | 9.3 | / | -4.5
COc1ccc(S(=O)(=O)N2CCCC(C(=O)O)C2)cc1Cl (configuration not stated) | -0.2 | 0.2 | -0.3 | 8.0 | 1.7% | 0.2
CC(Sc1nnnn1C)C(=O)NC1CCCC1 (configuration not stated) | -6.0 | -2.5 | 0.8 | -0.2 | -0.3% | -3.4
O=C(COC(=O)C12CC3CC(CC(O)(C3)C1)C2)NCCc1ccc(Cl)cc1 | 3.2 | -6.4 | -0.4 | -16.4 | 0.4% | -1.2
COCCN(CCOC)S(=O)(=O)NC[C@H]1O[C@@H](n2cnc3c(N)ncnc32)[C@H](O)[C@@H]1O | 7.5 | -0.8 | 0.0 | -7.0 | 0.0% | /
COC(=O)CCCCC1SCC2NC(=O)NC21 (configuration not stated) | 4.0 | -3.2 | 0.4 | 7.3 | 1.2% | -1.1
CCOC(=O)N1CCN(C(=O)c2oc3ccc(S(=O)(=O)N4CCCCCC4)cc3c2C)CC1 | 8.4 | 0.5 | 0.5 | 6.0 | 0.4% | 4.2
Cc1ccccc1N1CCN(C(=O)c2cc(-c3ccccc3)nc3c2cnn3C(C)C)CC1 | 6.3 | 0.8 | -0.5 | 3.3 | -0.5% | 0.9
CC(=O)CSc1nc2ccccc2s1 | 3.7 | -1.8 | 1.8 | -3.3 | -2.1% | -3.1
Cc1cc2[nH]c3c(c[n+](C)c4ccccc34)c2cc1C | -16.2 | 2.1 | -0.7 | ? | -2.3% | -4.0
COc1cccc(N2CCN(C(C)C(=O)NC34CC5CC(CC(C5)C3)C4)CC2)c1 (configuration not stated) | -18.1 | -3.1 | 1.3 | -7.2 | -0.6% | -19.2
O=C1CCC(C(=O)OCC(=O)Nc2ccc(SC(F)F)cc2)=NN1 | 1.6 | -2.6 | -0.3 | 17.6 | 0.1% | 1.1
Cc1cc(NC(=O)Nc2cccs2)no1 | 3.1 | -1.8 | -0.2 | -10.2 | -1.3% | -3.8
CC(C)OP(=O)(c1ccccc1)c1ccccc1 | 3.2 | -6.4 | 0.5 | -16.6 | -2.0% | -3.8
COc1ccc(C)cc1NC(=O)CSc1nc2ccccc2nc1N1CCCCC1 | 2.8 | -3.8 | 0.8 | 15.1 | 1.4% | 1.2
COc1ccc(NC(=O)CSCC(=O)Nc2ccc(S(=O)(=O)N3CCCC3)cc2)cc1 | -1.4 | 3.1 | -0.3 | 2.9 | -0.3% | 6.6
O=C(CSc1nnnn1C1CCCCC1)N1CCCC1 | 8.9 | -2.8 | 0.1 | -2.6 | -1.3% | -10.5
Cc1ccc(NC(=S)NC(=O)c2ccc(F)cc2)cc1S(=O)(=O)Nc1ccccc1Cl | -29.9 | -12.0 | 0.7 | -3.3 | 1.3% | -15.0

Complete entries, looked up by structure. Screens in order: Six1-Eya2 inh, D2 agonist, TRPML1 agonist, CtBP-E1A inh, PINK1 expr mod, D2 PAM
Record of COc1ccc(C)cc1NC(=O)CSc1nc2ccccc2nc1N1CCCCC1 : 2.8, -3.8, 0.8, 15.1, 1.4%, 1.2
Record of O=C(/C=C/NNC(=O)c1cccc(Br)c1)c1cccc(Br)c1 : -8.5, 0.8, 0.4, 9.3, /, -4.5
Record of COc1cccc(N2CCN(C(C)C(=O)NC34CC5CC(CC(C5)C3)C4)CC2)c1 (configuration not stated) : -18.1, -3.1, 1.3, -7.2, -0.6%, -19.2
